# High-throughput results as filed in PubChem BioAssay.
# NPYLR7 agonist: activates Aedes aegypti NPYLR7 receptor. HEK293T NPYLR7/Galpha15, GCaMP6s calcium fluorescence. activation, % at 10 µM. 0.15% of 270,000 active. AID 1259423; in the data active = activation above about 40%;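 note: 0% = vehicle and 100% = reference agonist at the receptor; some compounds past the cut are filed as inactive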
# NPYLR7 agonist max-min: also measured in NPYLR7 agonist; calls as there; activation, %; measured here: Max-Min RFU normalised activation; some inactives read as strong as hits;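 span of the calcium signal over five minutes; 0% = vehicle and 100% = native peptide agonist; compound fluorescence can raise it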
# * hit, by the source's call. A portion of the library; rates above refer to the full screens.
structure	NPYLR7 agonist	NPYLR7 agonist max-min
CCc1cccc(NC2CC3CCC2C3)c1 (stereo not drawn)	18.3	10.8
COc1ccccc1N=c1scc(-c2ccccc2)n1N1CCOCC1	-6.6	-8.3
O=C(Nc1ccc([N+](=O)[O-])cc1)c1cc2ccccc2o1	12.3	4.6
CCCCNC(=O)c1c(O)nc2sccn2c1=O	-3.0	-1.4
CCOC(=O)CN1C(=O)NC2NC(=O)NC21 (stereo not drawn)	3.1	0.2
O=C(NCCCN1CCOCC1)C(=O)c1ccc(C2CCCCC2)cc1	18.8	-2.0
COC(=O)c1cc2n(n1)CCN(C(=O)Cc1ccc(O)c(Cl)c1)C2	4.7	2.9
CCOC(=O)N1C2C=C(C)[C@@H]2[C@@H]2CC(=O)N21 (stereo partly drawn)	-1.8	-4.0
CC1CCN(C(=O)COc2coc(CN3CCc4ccccc43)cc2=O)CC1	1.5	-0.5
CCc1nn2c(N3CCN(c4cccc(C)n4)CC3)cc(C)nc2c1-c1ccccc1	-1.7	-4.2
Cc1onc(C(=O)N2CCOCC2)c1[N+](=O)[O-]	7.0	5.7
Nc1nnc(SCC(=O)NC(CF)Cc2ccccc2)s1 (stereo not drawn)	2.1	0.3
COC(=O)CCCC(=O)N1CCC2(CCCN(CCC3CCCCC3)C2)C1 (stereo not drawn)	5.1	4.5
CC(C(=O)Nc1ccc(Br)cc1)N1CCN(CC(=O)N2CCCCC2)CC1 (stereo not drawn)	1.0	31.3
CC(=O)c1ccc(S(=O)(=O)N(Cc2nnc(-c3ccccc3Br)o2)C2CC2)cc1	13.4	10.6
Cc1cc(C)cc(CSCC(=O)N2CCN3CCNC(=O)C3C2)c1 (stereo not drawn)	-2.0	-1.0
CCSc1nn(CC(=O)Nc2cccc(SC)c2)c(N)c1S(=O)(=O)c1ccc(C)cc1	0.3	-7.6
N#C/C(C(=O)N1CCCCC1)=C1/SC=C(c2ccccc2)N1c1ccccc1	-12.9	-19.4
CCCCCn1c(=O)c2c(nc3n2CC(C)CN3c2ccc(Cl)cc2)n(C)c1=O (stereo not drawn)	6.6	9.3
CCOC(=O)N1CCN(C(=O)c2cc3nc(-c4ccc(OC)cc4)cc(C(F)(F)F)n3n2)CC1	3.9	5.8
O=C(COc1cccc(Cl)c1)N1CCC(CCc2ccc3c(c2)OCO3)CC1	0.9	6.1
CCCC(=O)Nc1nc2c(s1)CC(C)CC2 (stereo not drawn)	5.1	9.7
COc1ccccc1COCC(O)CN(C)C1CCS(=O)(=O)C1 (stereo not drawn)	-0.8	5.9
O=C(NC1C2COCC1CN(CC1CC1)C2)C1(c2ccccc2)CC1 (stereo not drawn)	25.5	18.5
CC(C)N1CCN(C2CCN(c3ccc4c(c3)OCO4)CC2)CC1CCO (stereo not drawn)	3.1	3.4
CC1CCCCN1Cc1nc2c(c(=O)n(C)c(=O)n2C)n1CCN1CCOCC1 (stereo not drawn)	0.4	13.9
c1ccc(-c2csc3nc(-c4cccnc4)nc(N4CCCC4)c23)cc1	4.6	5.2
CC(C)Nc1ncc(CN2CCCC(C(=O)c3ccc4ccccc4c3)C2)cn1 (stereo not drawn)	2.7	-0.9
CC(C)c1ccc(N2C(=O)CSC2c2cccc(NC(=O)c3cccc(F)c3)c2)cc1 (stereo not drawn)	10.3	14.2
O=C(c1cc(-c2ccco2)[nH]n1)N1CCC(C(O)(c2ccccc2)c2ccccc2)CC1	-5.1	-9.3
COc1cc(-c2nnc(-c3cc(OC)c(OC)c(OC)c3)o2)cc(OC)c1OC	9.3	12.5
CCOC(=O)N1CCN(Cc2cc(=O)oc3c(C)c(C)cc(C)c23)CC1	-8.6	-10.3
CC1Cc2ccccc2N1S(=O)(=O)c1cccc2nsnc12 (stereo not drawn)	-1.2	-3.2
CC(=O)Nc1cnc(-c2ccc3[nH]ccc3c2)cn1	1.6	0.9
Cc1cc(C)nc(Sc2ccccc2)n1	9.2	6.0
CC(C)(C)C1c2[nH]c3ccccc3c2CCN1Cc1ccn[nH]1 (stereo not drawn)	9.8	15.5

# 4 of these compounds, reformatted:
CCOC(=O)N1CCN(Cc2cc(=O)oc3c(C)c(C)cc(C)c23)CC1
  NPYLR7 agonist = -8.6
  NPYLR7 agonist max-min = -10.3
CC1Cc2ccccc2N1S(=O)(=O)c1cccc2nsnc12 (stereo not drawn)
  NPYLR7 agonist = -1.2
  NPYLR7 agonist max-min = -3.2
CC(=O)Nc1cnc(-c2ccc3[nH]ccc3c2)cn1
  NPYLR7 agonist = 1.6
  NPYLR7 agonist max-min = 0.9
Cc1cc(C)nc(Sc2ccccc2)n1
  NPYLR7 agonist = 9.2
  NPYLR7 agonist max-min = 6.0

# Back to the main list, repeating the 2 entries before the break.
structure	NPYLR7 agonist	NPYLR7 agonist max-min
Cc1cc(C)nc(Sc2ccccc2)n1	9.2	6.0
CC(C)(C)C1c2[nH]c3ccccc3c2CCN1Cc1ccn[nH]1 (stereo not drawn)	9.8	15.5
COc1ccc(OC)c(-c2cn(S(=O)(=O)c3ccccc3)nc2N)c1	13.8	8.8
O=C1CC2(CCN(C(=O)CCc3ccc(F)cc3F)CC2)CN1	13.7	1.6
CCCCCN(Cc1cccn1Cc1cccc(C)c1)C(=O)c1ccc(C)c([N+](=O)[O-])c1	15.1	22.6
CCNC(=O)C1(C)CCCN(Cc2ccc(-n3ccnc3)cc2)C1 (stereo not drawn)	0.9	1.6
CC(C)c1ccc(NC2CCCN(C(=O)c3ccco3)C2)cc1 (stereo not drawn)	-5.4	-5.2
Cc1ccc2nc(-c3ccc(NC(=O)c4cc(Br)ccc4Cl)cc3)oc2c1	10.1	12.7
O=C(O)c1ccccc1/C=N\Nc1nc(N2CCOCC2)nc(N2CCOCC2)n1	3.9	-1.5
CCOc1ccccc1NC(=O)N1CCN(c2nc(-c3ccc(C)cc3)nc(C)c2C(C)C)CC1	-5.0	-1.1
Cc1ccc(-c2ccc(/C=N/n3cnnc3)o2)c(Br)c1	-6.1	-9.0
O=C(NC(c1ccc(Cl)cc1)c1cnccn1)C1CCN(CCN2C(=O)c3ccccc3C2=O)CC1 (stereo not drawn)	9.5	4.7
Cc1ccccc1Oc1ncccc1CNC(=O)C(C)N1CCCC1 (stereo not drawn)	0.1	0.0
C=CCn1c(=S)[nH]c2cc3ccccc3cc2c1=O	-12.2	-16.1
CC1(C)CCC[C@@]2(C)C1[C@@H](O)C[C@]1(C)C2CC[C@@H]2[C@@]3(C)CC[C@H](C(C)(C)O)[C@@H]3CC[C@@]21C (stereo partly drawn)	-8.0	-9.5
CCCNC(=O)CN(C)Cn1nc(-c2ccc(Cl)cc2)oc1=S	-1.6	-2.4
Cc1c(C(=O)NCc2ccco2)c(C2CC2)nn1-c1ccc(Cl)c(Cl)c1	-4.1	4.9
O=[N+]([O-])c1cccc(S(=O)(=O)N2CCN(c3nnnn3-c3ccccc3)CC2)c1	2.6	7.6
Cc1nc(C)c(C(C)NS(=O)(=O)c2c(C)c(C)c(C)c(C)c2C)s1 (stereo not drawn)	-0.9	23.2
O=C(Nc1cccc(Cl)c1)C(C1CCCC1)N1CCN(C(=O)c2ccc(Cl)cc2Cl)CC1 (stereo not drawn)	-3.2	-2.0
O=C(NCCCn1ncc2ccccc21)c1n[nH]c2c1CCC2	-2.5	-6.4
Cc1cc(C(=O)CSc2nnc(C3CC3)n2C)c(C)n1C1CC1	-2.2	4.3
C=CCn1c(C)cc(C(=O)CSc2nnc(COc3ccc(F)cc3)o2)c1C	3.9	-0.5
O=C(CNc1ccccc1Cl)NCc1cn2cc(Cl)ccc2n1	4.2	1.3
Clc1ccc(-n2cnc3ccccc32)nc1	1.4	-5.3
NCCCN1CCOC(c2ccccc2)C1 (stereo not drawn)	-3.8	3.1
CCOc1ccc(/C=C2/C(=O)N(c3ccccc3)N=C2C)c(OCC)c1	1.9	3.0
NC(=O)Cc1csc(Nc2ccc(OC(F)(F)F)cc2)n1	11.9	5.3
CNS(=O)(=O)c1ccc(CCC(=O)N2CCC3(CCCNC3)C2)cc1 (stereo not drawn)	17.1	4.2
O=C(NCc1ccncc1)C1COC2(CCCCC2)N1C(=O)c1cc(F)cc(F)c1 (stereo not drawn)	-1.4	1.4
Cc1ccc(CN(Cc2ccco2)CC(O)COc2ccc(Cl)cc2)o1 (stereo not drawn)	40.0	43.9
CC1Oc2cc(Cl)ccc2N(c2ccccc2)C1=O (stereo not drawn)	-6.9	-7.7
CN(Cc1cc(-c2ccccc2)no1)Cc1cccc2nonc12	2.4	1.9
CC(c1ccccc1)n1cnc2c(nnn2-c2cccc(F)c2)c1=O (stereo not drawn)	-4.4	-9.0
Cc1cc(C(F)(F)F)cc(N(C)CCn2cc(C(=O)N3CCCCC3)nn2)n1	-0.7	-2.8
Cc1c2cccn2cc[n+]1CC(=O)c1ccccc1	-14.4	-24.0
O=C(NC(=C(Cl)Cl)S(=O)(=O)c1ccc(Br)cc1)c1ccccc1	-3.1	-4.4
c1ccc2c(c1)nc(NCC1CCCO1)c1nnnn12 (stereo not drawn)	13.3	5.1

# Single entries from above.
# Cc1c2cccn2cc[n+]1CC(=O)c1ccccc1 | NPYLR7 agonist max-min = -24.0
# CNS(=O)(=O)c1ccc(CCC(=O)N2CCC3(CCCNC3)C2)cc1 (stereo not drawn) | NPYLR7 agonist max-min = 4.2
# CC(c1ccccc1)n1cnc2c(nnn2-c2cccc(F)c2)c1=O (stereo not drawn) | NPYLR7 agonist = -4.4

# Next part
structure	NPYLR7 agonist	NPYLR7 agonist max-min
Cc1cccc2sc(N(Cc3cccnc3)C(=O)c3ccc(C#N)cc3)nc12	-3.2	2.5
Cn1ccc2c(C(=O)OC3CCS(=O)(=O)C3)cccc21 (stereo not drawn)	-2.0	8.1
Cc1cc(CS(=O)Cc2c(F)cccc2Cl)no1 (stereo not drawn)	3.5	2.7
CCNC(=O)N(CCN1CCCCC1)CC(=O)N(CCc1ccc(OC)c(OC)c1)Cc1ccc(C)o1	-2.7	0.1
COc1ccc2oc(-c3ccc(NC(=O)c4cc([N+](=O)[O-])cc([N+](=O)[O-])c4)cc3)nc2c1	-1.9	-6.2
C=C(C)CN(CC)C(=O)c1ccc(-c2ccc(Oc3ccccc3)cc2)s1	3.5	-2.2
CN(C)C(=O)C1CCN(C(=O)Nc2nnc(CC3CCCCC3)s2)CC1	-0.1	-4.7
CCOc1ccccc1/C=N\Nc1oc(C(C)C)nc1C#N	-7.3	-8.9
O=C(NC(c1cccnc1)C(F)(F)F)c1cn(CCCc2ccccc2)nn1 (stereo not drawn)	5.3	1.3
CCN(CC)Cc1cnc2c(C(=O)N3CCc4sccc4C3)cnn2c1	29.6	21.0
O=C(CN1CCN(Cc2ccc(Br)cc2F)CC1)N1CCSCC1	-7.1	-6.7
C=CCN(CC=C)C(=O)c1cc(-c2ccc(Cl)s2)nc2ccccc12	1.8	-0.5
Cc1cc(Oc2ccccc2C)nc(SCc2ccc(F)c(F)c2)n1	23.9	19.0
CC1(C)CN(C(=O)C2CCC2)C2(S1)C(=O)N(Cc1ccccc1Cl)c1ccccc12 (stereo not drawn)	2.8	8.9
O=c1[nH]c2cc(Cl)c(Cl)cc2[nH]c1=O	-5.3	-19.9
COc1cccc(/C=C2N=C(/C=C/c3ccc(Cl)cc3)OC/2=O)c1	-7.9	-11.0
CCCN(CCC(=O)NCc1ccccc1)c1nc(-c2ccccc2)nc2cc(Cl)ccc12	17.7	26.4
COc1ccc(OC)c2c1CN(c1ncccc1C#N)CC2O (stereo not drawn)	10.2	3.7
COc1cc(OC)cc(-c2onc(C)c2C(=O)NCCc2cccs2)c1	-1.0	-12.2
CCOc1cccc2sc(N(CCn3nc(C)cc3C)C(=O)C3CC3)nc12	-12.6	-15.9
Cc1ccc(NCc2c(Cl)nc(Cl)n2C)cc1	-2.2	-2.1
Cc1ccc(Cc2nc(N3CCN(C(=O)C(Cl)c4ccccc4)CC3)c3cnn(-c4ccccc4)c3n2)cc1 (stereo not drawn)	-17.9	-10.5
O=C1CC(c2ccccc2O)Cc2nc(N3CCN(c4ccccc4)CC3)ncc21 (stereo not drawn)	2.2	0.2
CCOC(=O)N(C)c1c(CC)nc2c(OCc3cc(Cl)cc(Cl)c3)cccn12	9.7	-4.8
COc1ccc(CN2CCNC(=O)C2CC(=O)NCc2cccc(Cl)c2)c(F)c1 (stereo not drawn)	4.2	-2.9
Cc1cccc(C)c1NC(=O)c1cccc(NC(=O)c2ccncc2F)c1	12.9	12.9
N#CCSc1nnc2[nH]c(=O)c3c(n12)CCCC3	-2.9	-9.3
NS(=O)(=O)c1ccc(NC(=O)CSc2nc3ccccc3s2)cc1	2.3	0.6
Cc1noc(-c2cccs2)c1C(=O)NCc1ccsc1	3.1	10.1
CNC(=S)NNc1c(Cl)cc(Cl)cc1Cl	3.1	2.2
CN1CCN(c2nc(-c3ccccc3)c3cc(Br)ccc3n2)CC1	-4.0	-5.9
C=CCN(Cc1csc(COc2cc(C)cc(C)c2C)n1)C(=O)c1cccs1	-2.4	10.3
CC(NC(=O)C(C)(C)N)c1ccc(-c2ccccc2)cc1 (stereo not drawn)	9.6	2.8
CC1C=CCC2C(=O)N(c3ccc(Oc4ccc(C#N)cc4)cc3)C(=O)C12 (stereo not drawn)	-6.4	-12.0
Cc1ccccc1-n1ncc(C(C)NC(=O)c2cc(C(C)C)nc(N)n2)c1C (stereo not drawn)	2.9	-1.6
O=C(OCc1ccccc1)c1c(Cl)sc2nnsc12	-2.9	-1.6
CCc1nc2n(n1)C(=O)C(C(c1ccccc1F)N1CCN(c3ccc(OC)cc3)CC1)S2 (stereo not drawn)	-8.0	-11.0
O=C(Nc1nc(-c2cc3cc(Cl)ccc3o2)cs1)c1ccncc1	3.7	0.2
